KCNQ2 block = KCNQ2 potassium channel inhibitors, primary screen, cell-based, CHO-K1, FluxOR thallium flux, B-score (AID 2156); 310,000 tested, 1.1% active; B-score at 10 µM; O88943; 20 min; active compounds read low; only compounds with negative scores are shown here; some inactives read as strong as hits;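 active = fluorescence ratio B-score at most minus 3 library SDs, with starting brightness B-score within 2 library SDs, cut at about -5.5 in these data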
Target sequence (O88943 whole entry, looked up): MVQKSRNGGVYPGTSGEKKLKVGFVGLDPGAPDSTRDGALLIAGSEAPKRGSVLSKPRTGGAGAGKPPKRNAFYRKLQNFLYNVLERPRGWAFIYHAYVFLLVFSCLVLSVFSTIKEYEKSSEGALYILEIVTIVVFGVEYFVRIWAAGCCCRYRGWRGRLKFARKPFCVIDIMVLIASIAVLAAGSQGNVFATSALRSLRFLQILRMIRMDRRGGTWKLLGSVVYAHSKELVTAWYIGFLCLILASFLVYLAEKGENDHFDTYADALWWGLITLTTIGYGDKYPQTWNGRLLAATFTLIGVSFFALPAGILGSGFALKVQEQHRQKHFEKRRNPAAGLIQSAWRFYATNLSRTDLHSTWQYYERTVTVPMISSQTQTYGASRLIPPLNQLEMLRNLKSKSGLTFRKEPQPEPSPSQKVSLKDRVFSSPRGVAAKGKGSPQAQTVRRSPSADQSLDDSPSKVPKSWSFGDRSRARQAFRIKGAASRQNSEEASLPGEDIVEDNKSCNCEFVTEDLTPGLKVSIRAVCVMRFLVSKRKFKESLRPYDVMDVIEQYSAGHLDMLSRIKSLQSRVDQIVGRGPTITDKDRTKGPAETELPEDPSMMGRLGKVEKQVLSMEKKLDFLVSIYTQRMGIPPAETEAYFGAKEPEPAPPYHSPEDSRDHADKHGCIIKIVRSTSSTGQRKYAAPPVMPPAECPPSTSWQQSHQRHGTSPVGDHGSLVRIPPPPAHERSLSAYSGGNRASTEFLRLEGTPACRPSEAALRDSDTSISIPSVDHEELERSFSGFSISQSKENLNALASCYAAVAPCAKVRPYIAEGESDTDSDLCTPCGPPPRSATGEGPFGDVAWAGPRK
KCNQ2 block baseline = further read-out of KCNQ2 block, marked with its call; B-score; measured here: initial fluorescence intensity artifact check;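 brightness before thallium and not channel activity; 0 = typical well and far values either way flag optical interference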
Starred values were filed as active, the others as inactive; i = inactive. Some of the compounds tested, so the mix of outcomes need not match the whole.

Values run as follows: KCNQ2 block, KCNQ2 block baseline
> Cc1ccc(S(=O)(=O)N(c2cccc(C)c2)C2CCS(=O)(=O)C2)cc1 (stereo not drawn)
  i, -0.84
> O=[N+]([O-])c1cc(S(=O)(=O)N2CCCC2)ccc1N/N=C/c1ccncc1
  i, 0.05
> COc1ccc(N2CCN(C(=O)CCS(=O)(=O)c3ccc4c(c3)CCN4C(=O)C3CC3)CC2)cc1
  i, 1.2
> CSc1ccc(COC(=O)CCS(=O)(=O)c2ccc(C)cc2)cc1
  i, -0.39
> COc1cccc(CN2CC(C(=O)NCCOc3ccccc3F)CCC2=O)c1 (stereo not drawn)
  i, -0.11
> Cc1[nH]c2ccc(C(=O)N3CCN(c4ccc(F)cc4)CC3)cc2c1C
  i, -0.92
> CCOc1ccc(C2/C(=C(\O)c3ccc4c(c3)OCCO4)C(=O)C(=O)N2CCCn2ccnc2)cc1OC (stereo not drawn)
  i, -0.2
> Cc1c(Br)cc(C(=O)N2CCCCCC2)c(C)c1C
  i, -2.2
> Cc1ccnc(NC(=O)c2cccc(S(=O)(=O)N3CCN(c4ccc(F)cc4)CC3)c2)c1
  i, -0.06
> CN1CCN(c2ccc([N+](=O)[O-])cc2C(=O)c2ccccc2)CC1
  i, 0.67
> Cc1ccc(SCCN2CCC(NC(=O)OCc3ccccc3)CCC2=O)cc1 (stereo not drawn)
  i, 0.26
> O=C(NC1CCCC1)C1CCN(S(=O)(=O)N2CCCCC2)CC1
  i, 1.5
> Cn1c(SCC(=O)NC2CCCCC2)nnc1-c1cccc(N)c1
  i, 0.43
> Cc1cc(F)ccc1S(=O)(=O)Nc1ccccc1C(=O)NCc1ccccn1
  i, -1.1
> CC1CCCCN1S(=O)(=O)c1ccc2[nH]c(=O)cc(C(=O)NCCCN3CCCCCC3)c2c1 (stereo not drawn)
  i, 0.04
> O=C(CN1CCN(c2ccccc2)CC1)Nc1ccncc1
  i, -0.76
> COc1ccc(-c2noc(CSc3nc(N)c(-c4ccccc4)c(=O)[nH]3)n2)cc1
  i, 0.65
> Nc1ccc(-c2nc3c(Cl)c(N)ccc3[nH]2)cc1
  i, -0.41
> O=C(Nc1ccc(Br)cn1)C1CCN(S(=O)(=O)c2cccs2)CC1
  i, 0.32
> Cc1cc(N(C)C)c(C#N)c(NCc2ccccc2)n1
  i, 0.64
> CCCCCCCCCCCCCCCC[N+](C)(C)CC
  i, 18
> O=C(N/N=C/c1ccc([N+](=O)[O-])s1)c1ccccc1
  i, -0.97
> CCC(C)(C)n1nnnc1C(c1cccs1)N1CCc2ccccc21 (stereo not drawn)
  i, -1.7
> CSc1cccc(N2CC(C(=O)Nc3ccccc3N3CCCC3)CC2=O)c1 (stereo not drawn)
  i, 1.7
> CCOC(=O)N/N=C(\C)c1ccccc1OC(F)F
  i, 1.6
> COc1ccc(CN2C(=O)c3ccc(C(=O)O)cc3C2=O)cc1
  i, -0.31
> COc1ccc(CN2C(=O)C(CC(C)C)Nc3ncnc(N4CCOCC4)c32)cc1 (stereo not drawn)
  i, -0.29
> O=C(O)C1CCCN(S(=O)(=O)c2ccc(Br)s2)C1 (stereo not drawn)
  i, 0.79
> COc1ccc(/C=C/C(=O)Nc2ccccc2C(=O)N2CCCC2)cc1
  i, 0.02
> Cc1ccc(S(=O)(=O)NCCC(=O)NC2CC2)cc1
  i, 0.64

A different layout for 3 compounds above:
> CSc1cccc(N2CC(C(=O)Nc3ccccc3N3CCCC3)CC2=O)c1 (stereo not drawn)
  KCNQ2 block: i
  KCNQ2 block baseline: 1.7

> O=C(O)C1CCCN(S(=O)(=O)c2ccc(Br)s2)C1 (stereo not drawn)
  KCNQ2 block: i
  KCNQ2 block baseline: 0.79

> Cc1cc(N(C)C)c(C#N)c(NCc2ccccc2)n1
  KCNQ2 block: i
  KCNQ2 block baseline: 0.64

The results go on:
Values run as follows: KCNQ2 block, KCNQ2 block baseline
> COc1ccc(OC)c(NC(=O)Cc2coc3ccc4ccccc4c23)c1
  i, 0.28
> COc1ccc(S(=O)(=O)Nc2ccc(O)c(Sc3nc4ccccc4s3)c2)cc1
  i, -0.02
> CCn1nc2cc(C(=O)NCC34CC5CC(CC(C5)C3)C4)ccc2c1OC
  i, 0.21
> C=CC(C)Sc1nc2c(c(=O)n(C)c(=O)n2C)n1Cc1ccccc1Cl (stereo not drawn)
  i, 1.1
> Cc1ccccc1N=Nc1c(O)[nH]c2ccccc12
  i, 0.83
> CC1=[N+](C)N(c2ccccc2)C(=O)C1N=C/C=C/c1ccccc1 (stereo not drawn)
  i, 1.5
> O=C(NCc1ccccc1)C1=C[C@@H](C2CC2)C[C@@H](OCc2ccc(CO)cc2)O1
  i, 0.27
> COC(=O)Cn1c2c(c3cc(C)ccc31)CCCC2NC(C)c1ccccc1 (stereo not drawn)
  i, -1.8
> Clc1cccc(N2CCN(c3ncnc4nc[nH]c34)CC2)c1
  i, -1.5
> COc1ccc(NC(=S)N2CCC(Cc3ccccc3)CC2)cc1
  i, 0.01
> CCN(C(=O)CN1C(=O)S/C(=C\c2ccccc2OC)C1=O)C1CCS(=O)(=O)C1 (stereo not drawn)
  i, 0.12
> CCN1CCN(Cc2ccc(NC(=O)c3ccc(C)c(NC(=O)C(=O)c4c[nH]c5ccccc45)c3)cc2C(F)(F)F)CC1
  -7.8*, -3.1*
> Cc1ccc(SCc2nc3ccccc3n2CC(=O)Nc2c(C)cccc2C)cc1
  i, -1.3
> CSc1nc2ccc3nc(NC(=O)c4cccs4)sc3c2s1
  i, 0.95
> COc1cc(OC)c(OC)cc1/C=N/Nc1ncnc2c1[nH]c1ccc(C)cc12
  i, 1.5
> CCCOc1ccccc1C1CC(=O)NC(C)=C1C(=O)OCC(C)C (stereo not drawn)
  i, -1.4
> COC(=O)c1ccccc1N/C=C1\CCc2c(c(C)nn2-c2ccccn2)C1=O
  i, 1.8
> COC(=O)C1=C(C)Nc2ncnn2C1c1ccco1 (stereo not drawn)
  i, -1.5
> CC(=O)c1c(C(C)=O)c(C)n(-c2cccc3cccnc23)c1C
  i, 1.4
> CCOc1ccc(C(=O)NCC(=O)N2CC=C(c3ccccc3)CC2)cc1OCC
  i, -0.02
> COc1cc(NC(=O)c2cc(-c3cccc(O)c3)on2)cc(OC)c1OC
  i, 0.08
> COc1ccc(CCC(=O)Nc2cc([N+](=O)[O-])ccc2OC)cc1
  i, -1.2
> CCNC(=O)CN1C(=O)NC(Cc2ccccc2)(Cc2ccccc2)C1=O
  i, 0.07
> O=C(/C=C/c1ccc(S(=O)(=O)NCc2ccco2)cc1)NCc1cccc(Cl)c1
  i, -0.49
> CCC1CCCCN1CCCNC(=O)CN1C(=O)COc2ccc(S(=O)(=O)N3CCOCC3)cc21 (stereo not drawn)
  i, -0.49
> C[C@H](NC(=O)c1nc[nH]c1C(=O)NCc1ccccc1)C(=O)OCc1ccccc1
  i, -1.5
> Cc1c(C(=O)NN)sc(-c2ccccc2)c1C#N
  i, 0.94
> N#C/C(=C(/O)COC(=O)COc1ccc(Cl)cc1)c1nc2ccccc2[nH]1
  i, 1.7
> Cc1ccc(S(=O)(=O)N2CCC(C)CC2)c([N+](=O)[O-])c1
  i, 1.1
> COc1cc(OC)c(C2C(C(=O)N3CCOCC3)=C(C)NC3=C2C(=O)CC(C)(C)C3)cc1OC (stereo not drawn)
  i, -1.4
> O=C1/C(=C/c2ccccc2)N=C(N2CCOCC2)N1c1cccc(Cl)c1
  i, -1.2
> CCOC(=O)C1CCN(c2c(NC3CCCc4ccccc43)c(=O)c2=O)CC1 (stereo not drawn)
  i, -1.3
> CCOC(=O)c1sc2nc(C)nc(NCc3ccc(F)cc3)c2c1C
  i, -0.01
> Cc1ccc(NC(=S)N(CCC(C)C)C(C)c2ccncc2)c(Cl)c1 (stereo not drawn)
  i, -0.05
> CC(C)Cn1c(-c2cc(Br)ccc2F)nc2c1c(=O)[nH]c(=O)n2CC(C)C
  -6.5*, 0.4*
> Cc1cc(C)c(S(=O)(=O)N2C=CC(C(F)(F)F)=NCC2)c(C)c1
  i, -0.48
> COc1ccc2[nH]c(C)c(CCNC(=S)Nc3cc(C)ccc3C)c2c1
  i, -0.36
> COc1ccc(NS(=O)(=O)c2cc(NC(=O)Cn3cnc4c3c(=O)n(C)c(=O)n4C)ccc2C)cc1
  i, 0.23
> Cc1ccc(OCC(=O)c2c[nH]c3ccccc23)c([N+](=O)[O-])n1
  i, 1.4
> CN(C)Cc1c(C(=O)N/N=C/c2ccoc2)nnn1-c1nonc1N
  i, -1.3
> C=CCn1cc(-c2ccccc2)cc(C#N)c1=O
  i, -0.01
> CC(=O)Nc1nc2ccccc2n1CCN(C)C
  i, 0.96
> Cn1cccc1C(=O)NC(=O)COC(=O)CC12CC3CC(CC(Br)(C3)C1)C2
  i, 1
> C[C@]1(C(=O)NCCCNc2ncc(C(F)(F)F)cc2Cl)C=C[C@@H](Cc2ccccc2)N1C(=O)c1ccccc1
  i, -0.73
> O=C(NCc1ccc(F)cc1)c1cc2c(s1)CCCC2
  i, -2.1

The last five compounds of the part above lead into the next:
Values run as follows: KCNQ2 block, KCNQ2 block baseline
> C=CCn1cc(-c2ccccc2)cc(C#N)c1=O
  i, -0.01
> CC(=O)Nc1nc2ccccc2n1CCN(C)C
  i, 0.96
> Cn1cccc1C(=O)NC(=O)COC(=O)CC12CC3CC(CC(Br)(C3)C1)C2
  i, 1
> C[C@]1(C(=O)NCCCNc2ncc(C(F)(F)F)cc2Cl)C=C[C@@H](Cc2ccccc2)N1C(=O)c1ccccc1
  i, -0.73
> O=C(NCc1ccc(F)cc1)c1cc2c(s1)CCCC2
  i, -2.1
> Cc1ccc(Oc2nc3ccccc3n3c(C)nnc23)c(C)c1
  i, 0.1
> Cc1cnc(CN2CCCC(C(=O)c3ccc4c5c(cccc35)CC4)C2)[nH]1 (stereo not drawn)
  i, -2
> CC(C)c1ccc(CC(C)C2C3=C(CCCC3=O)OC3=C2C(=O)CCC3)cc1 (stereo not drawn)
  i, 0.65
> Nc1nnc(CSc2ccc(Cl)cc2)s1
  i, 1.9
> Cc1onc(C(=O)N2C(C)CCCC2C)c1[N+](=O)[O-] (stereo not drawn)
  i, 0.13
> Cc1ccc(C(=O)N/C(=C\c2sccc2C)C(=O)NCCCN2CCOCC2)cc1
  i, 1.6
> Cc1ccc(S(=O)(=O)N/N=C/c2cccn2-c2ccc(Cl)cc2)cc1
  i, -0.2
> COCCNC(=S)N1CCN(Cc2cccc(OC)c2)CC1
  i, -0.05
> CCCOc1ccc(C(=O)C(CN2CCCC2)c2ccccc2)cc1 (stereo not drawn)
  i, 1.1
> C/C(=N\NC(=S)Nc1cc(S(=O)(=O)N2CCOCC2)ccc1Cl)c1ccc(N2CCOCC2)cc1
  i, -1.8
> COc1nc(N)nc(CC(=O)C2CC2)n1
  i, -0.53
> CCOC(=O)CCc1c(C)c(C#N)c2nc3ccccc3n2c1-n1ccnc1C
  i, -0.49
> CC(=O)c1c(N2CCN(c3ccc(F)cc3)CC2)nc(=S)n(-c2ccccc2)c1C
  i, 0.39
> OC(COc1ccc(Cl)cc1)CN1CCN(c2cccc(Cl)c2)CC1 (stereo not drawn)
  i, -0.02
> Nn1c(SCC(=O)N2CCOCC2)nnc1-c1ccc(Cl)cc1Cl
  i, -0.4
> Cc1ccccc1N1CCN(Cc2nc(Cc3ccccc3F)no2)CC1
  i, -0.6
> CN(CC(=O)Nc1cc([N+](=O)[O-])ccc1Cl)Cc1ccc(Br)cc1
  i, -0.67
> C/C(=N\NC(=O)c1nc(C)cc(C)n1)c1ccccc1
  i, 1.1
> CCOc1ccc2nc(SCC(=O)NCC3CCCO3)c(C#N)cc2c1 (stereo not drawn)
  i, -1.4
> O=C(Nc1ccccc1F)C1CCCN(S(=O)(=O)c2ccccc2)C1 (stereo not drawn)
  i, 1.4
> Cn1c(NN)nc2sc3c(c2c1=O)CCC3
  i, -0.95
> COCCn1c(CCC(=O)O)nc2c1c(=O)[nH]c(=O)n2CC(C)C
  i, -0.57
> CCOc1ccc(NC(=O)c2cc(S(=O)(=O)N3CCOCC3)cs2)cc1
  i, 0.99
> O=C(CNC(=O)c1cccc(F)c1)OCC(=O)N1CCN(C(=O)c2ccco2)CC1
  i, -0.01
> C[C@H](NC(=O)Nc1ccc2c(c1)OCCO2)C(=O)O
  i, -0.19
> O=C(CSC(=S)N1CCSCC1)c1ccc(Cl)cc1
  i, 0.32
> c1cncc(-c2nc3c(ccc4ccccc43)[nH]2)c1
  i, -0.39
> O=C1C2CC=CCC2C(=O)N1CC(=O)N(Cc1ccccc1)C1CCS(=O)(=O)C1 (stereo not drawn)
  i, 2.9
> CC(C)C(=O)Nc1ccc(NC(=O)c2ccccc2Cl)nc1
  i, 0.16
> CCCNC(=O)COc1ncnc2sc(C)c(C)c12
  i, 0.04
> COc1ccc(CN2CCCC(C(=O)c3ccc(Cl)cc3)C2)cc1Cn1cccn1 (stereo not drawn)
  i, -1.7
> NC(=O)C1CCN(C(=S)c2cccs2)CC1
  i, 1.9
> Cc1cccc(CSC(Nc2ccc(F)cc2)=C(C#N)C#N)c1
  i, 0.62
> CC(C)(C)c1cc(C(=O)Nc2cccc3ccccc23)ccn1
  -5.8*, 0.28*
> O=C(CNC(=O)c1ccc(Cl)cc1)c1ccc(Cl)cc1
  i, -2.3
> O=C(Cn1cnc2c(cnn2-c2ccccc2)c1=O)N1CCCc2ccccc21
  i, -1.7
> C=C(C)CN=C1NN=C(c2cc(C)n(-c3ccc(C)cc3)c2C)CS1
  i, 1.8
> O=C(NCC1CCCO1)c1ccc(NC(=O)C2C3C=CC(C3)C2C(=O)O)cc1 (stereo not drawn)
  i, 0.37
> COC(=O)C1=CC(C(=O)c2cccs2)=NN(c2ccc(OC)cc2)C1C(=O)OC (stereo not drawn)
  i, 0.56
> Cc1nn(Cc2ccc(Cl)c(Cl)c2)c(C)c1NC(=O)c1sc2ccccc2c1Cl
  i, 0.57
> COc1ccc(NC(=O)C2CCCN(S(=O)(=O)c3c(C)[nH]c(=O)[nH]c3=O)C2)cc1OC (stereo not drawn)
  i, -1.1
